# MbtI inh: blocks the Mycobacterium tuberculosis siderophore enzyme MbtI | purified MbtI enzyme, fluorescence intensity read-out | hit rate 0.89% among 100,000 | inhibition, %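 (about 17 µg/mL by stock and volumes)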;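 active means above 50% in both replicates, above 80% if mildly self-fluorescent; inactive means the rest, strongly fluorescent compounds included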;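 further: 0% = mean of negative and 100% = mean of positive controls; one replicate is shown; some compounds called inactive have numbers as strong as hits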
# Target sequence (P9WFX0 whole entry, looked up): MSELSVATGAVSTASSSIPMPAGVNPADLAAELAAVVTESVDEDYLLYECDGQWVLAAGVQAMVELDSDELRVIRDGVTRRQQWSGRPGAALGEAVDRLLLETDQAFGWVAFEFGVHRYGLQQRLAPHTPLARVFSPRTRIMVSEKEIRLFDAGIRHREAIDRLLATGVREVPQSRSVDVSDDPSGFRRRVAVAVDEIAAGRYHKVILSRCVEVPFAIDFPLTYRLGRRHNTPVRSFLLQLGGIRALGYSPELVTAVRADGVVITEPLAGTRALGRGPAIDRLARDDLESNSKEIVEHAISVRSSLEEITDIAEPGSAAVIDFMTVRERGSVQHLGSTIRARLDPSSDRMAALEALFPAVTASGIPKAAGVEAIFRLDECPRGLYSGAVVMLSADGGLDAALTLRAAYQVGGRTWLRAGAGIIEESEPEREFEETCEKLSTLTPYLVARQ
# PV pol inh: inhibitors of poliovirus RNA polymerase binding and polymerization; P03300; poliovirus polymerase elongation, fluorescence polarization; hits give low values; hit rate 0.66% among 150,000; % elongation, % (compound at 16.7 µg/mL); in the data active means % elongation below about 90%; further: some results filed as inactive read as strong as hits
# Mtb MenB inh: Mtb MenB enzyme inhibition; P9WNP5; MenB enzyme assay, absorbance read-out; some hits fall short of the stated cut; inhibition, %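 (about 12 µg/mL by stock and volumes)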; hit rate 0.43% among 100,000;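 active means mean of two replicates above 30%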;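 further: 0% = no compound and 100% = wells with inactive enzyme; the first replicate is given; strong numbers were not always called active; inactives centre near -10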
# Target sequence (P9WNP5 whole entry, looked up): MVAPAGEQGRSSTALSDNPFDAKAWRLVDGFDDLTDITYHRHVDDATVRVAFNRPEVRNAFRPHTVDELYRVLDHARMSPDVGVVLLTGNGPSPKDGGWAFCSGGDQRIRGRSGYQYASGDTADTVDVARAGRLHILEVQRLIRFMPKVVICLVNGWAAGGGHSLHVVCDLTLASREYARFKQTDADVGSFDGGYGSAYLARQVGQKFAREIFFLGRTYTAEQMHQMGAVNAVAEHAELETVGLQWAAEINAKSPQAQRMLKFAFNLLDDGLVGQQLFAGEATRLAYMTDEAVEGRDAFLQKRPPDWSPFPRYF
# PV pol inh intensity: also measured in PV pol inh; calls as there; % elongation; measured here: total intensity read-out; formula for this scale not given here;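 total fluorescence in place of polarization; lower means less elongation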
# * hit, by the source's call; x = no result given; & = joins results of further samples.
entry	mol	MbtI inh	PV pol inh	PV pol inh intensity	Mtb MenB inh
1	CCCCNC(N)=S	8	107	111	-16
2	O=C(O)c1coc(COCC(F)(F)F)c1	-13	102	103	-51
3	CN(C)C(=O)COC(=O)c1ccc2c(c1)OCO2	27	106	97	17
4	O=C(Nn1cnc2ccccc2c1=O)c1cccc(Cl)c1	-1	99	101	-3
5	Cc1ccc(NC(=O)CCN2C(=O)c3ccccc3S2(=O)=O)cc1C	-199	103	106	8
6	O=C1c2ccccc2-c2cc(=O)[nH]c3cccc1c23	-2	89	119	2
7	Cc1sc2ncnc(OCC(N)=O)c2c1C	9	101	106	-10
8	O=C(/C=C/Nc1cccc(C(F)(F)F)c1)c1ccco1	-70	102	105	-195
9	CC(NCCOc1ccccc1F)C(=O)Nc1ccc(S(N)(=O)=O)cc1 (configuration not stated)	-19	106	106	-14
10	O=C(NCCN1CCCc2ccccc21)Nc1ccc(Br)cc1F	14	103	103	-20
11	CNC(=O)c1sc(NCC(C)C)nc1C	9	103	109	-1
12	NC(=O)c1cc2ccccc2o/c1=N\NC(=O)c1ccc(F)cc1	0	102	101	-24
13	NC(=NC(=O)c1ccccc1)N1N=CCC1c1ccccc1 (configuration not stated)	-205	100	102	-5
14	COc1cc(-c2nnc(SCc3nc4scc(-c5ccccc5)c4c(=O)[nH]3)o2)cc(OC)c1OC	-15	114	119	1
15	Cn1cnnc1SCCOc1ccc(Cl)cc1	-2	102	101	10
16	COCC(C)n1c(-c2ccc3c(c2)NC(=O)CO3)csc1=Nc1ccc(OC(F)F)cc1 (configuration not stated)	5	100	104	-26
17	CC(=O)Nc1ccc(N=Cc2ccccc2)cc1	-5	104	100	-7
18	CC(C)(C)NC(=O)c1cccc(C(=O)NC(C)(C)C)c1	-1	104	101	23
19	O=C(CN1C(=O)c2ccccc2S1(=O)=O)c1ccc(O)c(O)c1	3	106	107	2
20	CCC1Sc2ccccc2N(CC(=O)N(C(C)C)C(C)C)C1=O (configuration not stated)	-5	102	103	-5
21	Cc1[nH]c2ccccc2c1CCNC1=CC(=O)CC(C)(C)C1	x	97	93	-7
22	O=C(Cc1ccc(S(=O)(=O)N2CCCCC2)s1)OCc1csc(Nc2ccccc2)n1	-5	102	109	-15
23	CNc1nc(-c2ccc3c(c2)CCN3S(=O)(=O)c2ccccc2)cs1	13	101	100	14
24	O=C(O)CN(c1cccc(C(F)(F)F)c1)S(=O)(=O)c1ccccc1	9	102	103	2
25	COC(F)(C(=O)NCCc1cccn1C)C(F)(F)F (configuration not stated)	2	100	111	-19
26	CCOC(=O)C(c1ccc(Cl)cc1)N1CCNCC1 (configuration not stated)	-2	99	106	13
27	CCN(Cc1nc2cc(OC)c(OC)cc2c(=O)[nH]1)Cc1cc(=O)oc2c(C)c(C)ccc12	-4	104	107	-1
28	CC(C)C(=O)N(c1ccc2oc(=O)sc2c1)S(=O)(=O)c1cccs1	-44	99	102	7
29	Cc1cc(C(=O)CSc2nncs2)c(C)n1-c1ccc(F)cc1	-2	106	122	-8
30	CCc1ccc(NC(=O)CNS(=O)(=O)c2ccc3nc(C)sc3c2)cc1	6	104	108	-2

# 7 compounds drawn at random from those above:
entry	mol	MbtI inh	PV pol inh	PV pol inh intensity	Mtb MenB inh
16	COCC(C)n1c(-c2ccc3c(c2)NC(=O)CO3)csc1=Nc1ccc(OC(F)F)cc1 (configuration not stated)	5	100	104	-26
25	COC(F)(C(=O)NCCc1cccn1C)C(F)(F)F (configuration not stated)	2	100	111	-19
19	O=C(CN1C(=O)c2ccccc2S1(=O)=O)c1ccc(O)c(O)c1	3	106	107	2
24	O=C(O)CN(c1cccc(C(F)(F)F)c1)S(=O)(=O)c1ccccc1	9	102	103	2
3	CN(C)C(=O)COC(=O)c1ccc2c(c1)OCO2	27	106	97	17
13	NC(=NC(=O)c1ccccc1)N1N=CCC1c1ccccc1 (configuration not stated)	-205	100	102	-5
17	CC(=O)Nc1ccc(N=Cc2ccccc2)cc1	-5	104	100	-7

# (more compounds)
entry	mol	MbtI inh	PV pol inh	PV pol inh intensity	Mtb MenB inh
31	CCc1c(C(=O)O)c2ccccc2[nH]c1=O	x	103	97	-2
32	Cc1csc(SCC(=O)N(C)Cc2ccc(F)cc2)n1	-5	103	106	-1
33	CC1=C(c2ccc(C)c(C)c2)S(=O)(=O)NC1=NCC(=O)NCc1ccc(C)o1	8	113	117	-12
34	CCOC(=O)N1CCC(NC(=O)c2cnc3n(c2=O)CCS3)CC1	0	103	101	-29
35	NCCSc1sc(=S)sc1SCCN	39	103	102	-53
36	O=Nc1[nH]c2ccc(Br)cc2c1O	9	99	100	-8
37	CCc1ccc(NC(=O)N(Cc2cccc(OC)c2)C2CCN(CC)CC2)cc1	-3	101	102	3
38	O=C(CCCN=C1NS(=O)(=O)c2ccccc21)Nc1ccc2c(c1)CCC2	-10	107	106	-16
39	CCOc1ccc(NC(=O)COC(=O)C(C)C)cc1	-3	101	103	x
40	CC(C)(CC(=O)O)CC(=O)Nc1ccc(Oc2ccc(C(C)(C)C)cc2)nc1	-2	108	102	-9
41	Cc1noc(C)c1COc1cccc(C#N)c1	-2	110	116	-16
42	O=C(O)c1nn(CC(=O)N2N=C3/C(=C/c4ccco4)CCCC3C2c2ccco2)c(=O)c2ccccc12 (configuration not stated)	2	102	99	-36
43	CCc1ccc2oc(-c3ccc(NC(=O)CC(C)C)cc3)nc2c1	91	102	107	-3
44	Cc1ccc(/C=N/NC(=O)CCn2nc(C)cc2C)c(C)c1	8	104	104	-14
45	CC(Oc1ccccc1F)C(=O)N(C)Cc1ccccc1 (configuration not stated)	3	98	101	-26
46	O=C(c1cccs1)N(Cc1ccco1)c1ccc(O)cc1	3	104	104	-10
47	S=c1[nH]nc(-c2ccncc2)n1CCc1ccccc1	14&30	100&98	104&102	-11&4
48	O=C(Nc1ccc2cn[nH]c2c1)c1ccc(C(F)(F)F)cc1	3	105	109	x
49	N#C/C(=C\c1ccccc1)C(=O)C1CC1	-2	102	103	-1
50	CO/N=C/c1ccc(OC)c(OC)c1	0	104	100	-10
51	CC1=C(C(=O)NCCN(C)C)C2(CCN(Cc3ccccc3)CC2)OC1=O	-21	102	104	10
52	COC(=O)c1sc(N)c(C(=O)OC)c1CC#N	-2	107	111	-10
53	COc1ccc(Br)cc1/C=C/C(=O)O	14	99	105	-12
54	Cn1c(NCCCO)nc2c(c1=O)C1(CCCCC1)Cc1ccccc1-2	115	101	101	-39
55	CN(C(=O)CSc1ncnc2sccc12)C1CCCCC1	-4	104	99	-16
56	COc1ccccc1NCc1cccn1-c1nnc(N2CCCC2)s1	2	100	101	-13
57	CCCCn1nc(C)c(C(=O)Nc2nc3ccccc3[nH]2)c1Cl	-2	110	127	-22
58	Cc1nc(S(=O)(=O)NC2CCS(=O)(=O)C2)cn1C (configuration not stated)	2	101	103	-4
59	CC1=NN(C(=O)c2ccccc2)C(O)(C(F)(F)F)C1 (configuration not stated)	-9	102	107	-50
60	COc1cc(/C=N/n2c(C)nnc2C)cc(OC)c1O	2	103	106	-48
61	CCC(C)NC(=O)Cn1c(=O)n(CCc2ccccc2)c(=O)c2c3c(sc21)CCCC3 (configuration not stated)	-1	102	104	-1
62	CCN(CC)c1ncc(C(=S)N=P(N(C)C)(N(C)C)N(C)C)s1	36	100	98	-67
63	CCc1ccc(N2C(=O)N(CC(N)=O)C3CS(=O)(=O)CC32)cc1 (configuration not stated)	-16	100	102	-5
64	CCOC(=O)c1c(C)cc(C)n2c1nc1ccccc12	8	102	96	x
65	Cn1cc(NC(=O)N(Cc2ccco2)CC2CCCO2)c2ccccc2c1=O (configuration not stated)	-13	82*	77*	-27
66	COc1cccc(C2NC(=O)NC(C)=C2C(=O)Nc2cccc(Cl)c2)c1OC (configuration not stated)	18	104	102	11
67	CCOC(=O)c1nc(N2CCC3(CC2)OCCO3)c2ccccc2n1	5	98	101	1
68	Cc1ccc(C(=O)N2CCCCC2)cc1	-2	100	102	11
69	Cc1noc(C)c1CSc1ccccc1C(=O)OC(C)C(=O)N1CCOCC1 (configuration not stated)	8	102	111	-14
70	CCN(c1ccccc1)S(=O)(=O)c1ccc(N2CCc3ccccc3C2)nc1	57	x	x	-24
71	O=C(Cn1ccc2ccccc2c1=O)NCC(=O)N1CCCCC1	5	103	104	-12
72	O=C(NCCC(=O)N1CCN(c2ccccn2)CC1)Nc1ccccc1	100	104	108	-12
73	N#CC1=C(SCc2ccccc2)SC(c2ccc(C(=O)O)cc2)NC1=O (configuration not stated)	9	86*	84*	25
74	O=C(NCCc1nc2ccccc2n1Cc1ccccc1)c1ccccc1	-4	103	107	-14
75	Cn1c(CSc2cc(C(F)(F)F)nc3ccccc23)nnc1SCC(=O)c1ccccc1	-11	104	110	-27

# The last 2 entries of the section before are carried over, then new ones follow.
entry	mol	MbtI inh	PV pol inh	PV pol inh intensity	Mtb MenB inh
74	O=C(NCCc1nc2ccccc2n1Cc1ccccc1)c1ccccc1	-4	103	107	-14
75	Cn1c(CSc2cc(C(F)(F)F)nc3ccccc23)nnc1SCC(=O)c1ccccc1	-11	104	110	-27
76	COC(=O)CN1C(=O)COc2cc(S(=O)(=O)N3CCCCC3)ccc21	-22	102	107	-3
77	COC(=O)c1ccc(C(=O)OC)c(N2C(=O)CSCC2=O)c1	-2	102	103	-9
78	Cc1oc(-c2cc(Cl)ccc2Cl)cc1C(=O)O	11	108	104	-21
79	COc1ccc(NS(=O)(=O)c2ccc3oc(Nc4ccc(C)c(F)c4)nc3c2)cc1	16	100	94	1
80	CCC(=Nc1ccccc1)C1=C(O)CCCC1=O	-3	102	106	x
81	CCCCCC[N+]1(CCO)CCOCC1	-10	99	102	7
82	Cn1c(CCC(=O)OCC(=O)N2CCN(S(=O)(=O)c3ccc(Cl)cc3)CC2)nc(=O)c2ccccc21	23	98	99	-13
83	Cc1cc(N/C=C2/CCCCC2=O)no1	16	102	93	-36
84	COc1ccc(C(=O)Nc2ccc(S(=O)(=O)N3CCCCC3c3cccnc3)cc2)cc1OC (configuration not stated)	6	100	100	-20
85	COc1ccc2[nH]cc(CCN)c2c1	13	100	103	-21
86	COc1ccc(-c2nc(N)n(C(=O)CCc3ccccc3)n2)cc1	-48	103	103	-12
87	O=C(c1cnc2n(c1=O)CCS2)N(C1CCCCC1)C1CCCCC1	5	100	103	-10
88	Nc1cc(=O)[nH]c(SCC(=O)Nc2ccc(S(=O)(=O)N3CCCC3)cc2)n1	22	106	108	-25
89	Nc1ccccc1C(=O)NC1CCCCNC1=O (configuration not stated)	-5	110	115	-2
90	CCCN1C(=O)/C(=C/c2ccc(-c3ccc(Br)cc3)o2)NC1=S	23	73	193	-2
91	CN1/C(=C\C=N\NC(=O)CCN2CCCCC2)C(C)(C)c2ccccc21	-26	108	112	-112
92	O=C1c2ccc(Br)cc2C(=O)N1C(c1ccccc1)c1ccccc1	x	104	96	-4
93	CCC(C)(CC(=O)O)CC(=O)Nc1ccc(NC(C)=O)cc1 (configuration not stated)	-3	100	103	13
94	O=C(Cc1ccccc1)N1CCN(c2cccc(C(F)(F)F)c2)CC1	-10	105	108	-16
95	O=C1c2ccccc2NC(c2ccc(O)cc2)N1c1ccccc1 (configuration not stated)	116	99	102	6
96	Cc1onc(-c2ccccc2Cl)c1C(=O)c1ccccc1	-5	100	101	10
97	CCOC(=O)c1c(C)[nH]c(C(=O)Nc2ccc(C)cc2)c1C	2	113	129	-20
98	Cc1ccc(C(=O)CBr)cc1C	88*	101	105	x
99	COc1ccc2c(c1)CCc1c(C(=O)NC(C)c3ccccc3)noc1-2 (configuration not stated)	2	99	103	-29
100	CC(=O)Nc1ccc(NC(=O)COCC(=O)O)cc1	3	103	104	-13
101	Cc1csc(SCc2ccccc2C(=O)O)n1	-6	103	105	-27
102	CN(Cc1ccccc1)C(=O)CSc1nc2c(c(C(F)(F)F)n1)CCc1ccccc1-2	-3	102	101	-14
103	CC(C)[C@H](NS(=O)(=O)c1ccc2c(c1)OCCO2)C(=O)Nc1ccccc1	-7	102	102	-12
104	CN(C)c1nc(N)c(C#N)c(CC#N)c1C#N	6	80*	100*	16
105	CC(=O)N(c1ccccc1)C(C)C1CC1 (configuration not stated)	-9	98	91	-9
106	CC(C)NS(=O)(=O)c1ccc(OCC(=O)N(C)Cc2ccccc2)cc1	-2	101	101	8
107	CC1CCCCN1C(=O)/C=C/c1ccccc1 (configuration not stated)	1	103	102	-29
108	COc1cccc(C(c2nnnn2CCC(C)C)N2CCN(c3cccc(C)c3C)CC2)c1OC (configuration not stated)	-5	98	102	-3
109	COc1ccccc1C1CC(=O)N2CN(C3CCCCC3)CSC2=C1C#N (configuration not stated)	38	94	96	-18
110	O=S(=O)(c1ccc(O)c(N=Cc2ccccc2O)c1)C(F)(F)F	x	111	124	-51
111	O=c1[nH]c(SCc2ccccc2Cl)nc2c1cnn2-c1ccccc1	-5	103	109	-13
112	CC(C)(C)c1ccc(NC(=O)CN2CCOCC2)c(NC(=O)c2ccco2)c1	-10	101	104	-7
113	CS(=O)(=O)N(CCc1ccccc1)CC(=O)N1CCOCC1	0	102	101	34*
114	NC(=O)COc1ncnc2ccccc12	-1	104	108	x
115	Cc1ccc2c(c1)N(CC(=O)c1ccc(F)cc1)C=NS2(=O)=O	-12	101	103	15
116	CC1CC(=O)Nc2ccccc2N1C(=O)COc1ccccc1Br (configuration not stated)	-4	115	128	-5
117	COC(=O)C1=C(C)N(CCc2ccc(OC)c(OC)c2)C(=O)/C1=C\c1ccc(N(C)C)cc1	-3	105	158	0

# Screening results (PubChem BioAssay)
